# PMP22 txn – modulates PMP22 transcription in S16 Schwann cells | 43,000 compounds, 2% hits | Potency, µM (highest dose often 57.5 µM), without a hit: top-dose activity change, negative = inhibition, usual class: inhibitors | S16 Pmp22-F2sN Schwann cells (luciferase reporters placed in the Pmp22 gene), FLuc/NLuc coincidence luminescence, 24 h; active = clear falling dose curves in both reporters; inconclusive = both reporters move, but less clearly or upward; inactive = either reporter flat; the % is the NLuc reporter signal; note: % is set by controls: 0 for no effect and ±100 for the full control effect; some results filed as inactive show a strong effect at the top dose
#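 Luminescent read-out of sequential FLuc and NLuc signals from a reporter embedded in the Pmp22 3' UTR of S16 Schwann cells, taken after 24 h compound exposure at 37C; compounds reducing both signals score as inhibitors of expression.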
# HTT prom inh – HTT promoter inhibition. 48,000 compounds, 0.93% hits. Potency, µM (highest dose often 57.5 µM), for inactives: top-dose activity change, negative = inhibition, most hits filed as inhibitors. HEK293 HTT promoter firefly luciferase reporter (activity 0% = vehicle and -100% = no light), 24 h; active = well fitted inhibition curve with a large enough effect; inconclusive = small, poorly fitted or top-dose-only effect; inactive = no such curve, though single readings can be large or run the other way; note: nearly all actives have a fitted effect of over 50% in size
#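 Firefly luciferase signal from promoter-reporter HEK293 cells was scaled between vehicle (0%) and zero RLU (-100%). Compounds were tested at final concentrations of up to 57.5 uM over 24 h at 37 degrees C. PTC124 at 50 uM final served as control inhibitor.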
# The depositor's hits bear a star; ? = inconclusive; nt = no result given; [ ] = remark or other dose. Potency is the fitted concentration of half-maximal effect.
SMILES,PMP22 txn,HTT prom inh
Cc1ccc(C(=O)NCc2ccc3c(c2)CCN3C(=O)c2ccc(C)cc2)cc1,-58%,?
COc1ccc(NC(=O)c2ccc(-c3cccc(Cl)c3C)o2)cc1,-14%,0%
COc1ccc(NC(=O)CN2C(=O)CSc3ccc(S(=O)(=O)N4CCCC4)cc32)cc1OC,22%,-22%
CCN(C(=O)c1cccn(Cc2cccc(Cl)c2)c1=O)c1ccccc1,5%,-14%
O=C(Cn1nc(-c2ccccc2)nc(Cc2ccccc2)c1=O)Nc1ccc(Cl)cc1,-18%,-15%
COCCNC(=O)CN1C(=O)c2cccnc2Oc2ccc(Cl)cc21,13%,5%
COc1ccccc1NC(=O)CN1C(=O)C2(SCC(=O)N2c2ccc(F)c(F)c2)c2ccccc21 (centres undefined),6%,?
COc1ccc(NC(=O)Cn2c(=O)n(Cc3ccccc3)c(=O)c3oc4ccccc4c32)cc1Cl,?,6%
CCc1cccc(NC(=O)CN(C)S(=O)(=O)c2cccc3cccnc23)c1,-7%,-21%
CCCN(C(=O)c1c(C)oc2ncnc(N3CCOCC3)c12)c1ccc(Cl)c(Cl)c1,0%,-10%
Cc1ccc(C2CC(=O)N(Cc3ccc(F)cc3)c3c2c(C)nn3-c2nc(C)cc(C)n2)cc1 (centres undefined),1%,-27%
O=c1[nH]c(C2CCCN(S(=O)(=O)c3ccccc3)C2)nc2c1nnn2Cc1ccccc1Br (centres undefined),?,-24%
CN(C(=O)CSc1nc2ccc(NC(=O)c3cccc(F)c3)cc2s1)c1ccccc1,?,?
COc1ccc(NC(=O)CC2C(=O)N(c3ccc(OC)cc3)C(=O)N2C2CCCCC2)cc1 (centres undefined),-2%,26%
Cc1cccc(C(=O)Nc2c3c(nn2-c2ccc(Cl)cc2)CS(=O)(=O)C3)c1,-7%,-22%
COc1ccccc1NS(=O)(=O)c1cn(C)c(C)n1,6%,-7%
CCCN1CCN(c2ncc3c(n2)CCN(Cc2ccc(OC)c(OC)c2OC)C3)CC1,-22%,-16%
Cc1ccc2nc(N(Cc3cccnc3)C(=O)C3COc4ccccc4O3)sc2c1 (centres undefined),-24%,25%
COc1ccc(CNC(=O)CN2C(=O)CCCc3ccccc32)cc1,-5%,20%
CCCCN(C)CCNC(=O)Cn1ncc2c3ccccc3n(CCC)c2c1=O,?,-6%
O=C(c1ccc2c(c1)OCCO2)N(Cc1cccnc1)c1nc2c(F)cc(F)cc2s1,?,?
Cc1cccc(Cn2nnc3c(=O)[nH]c(C4CCCN(C(=O)c5ccccc5Cl)C4)nc32)c1 (centres undefined),-30%,-20%
Clc1ccc(-c2noc(-c3cccnc3N3CCN(c4ccccc4)CC3)n2)cc1,4%,2%
O=C(Nc1cccc(OCc2cc(=O)n3c4c(sc3n2)CCCC4)c1)c1ccc(F)cc1,?,-9%
COc1cccc(-c2nc(-c3ccc(Br)o3)no2)c1,-24%,65%[activator]
CC(C)C[C@@H](N)[C@H](O)C(=O)N[C@H](C(=O)N[C@H](C(=O)N[C@@H](CC(=O)O)C(=O)O)C(C)C)C(C)C,nt,-22%
CN(CCCNC(=O)Cn1ncc2c([nH]c3ccccc32)c1=O)Cc1ccccc1,-21%,0%
COc1ccc(Cl)cc1NC(=O)CSc1nc2c(oc3ccccc32)c(=O)n1Cc1ccco1,?,-10%
CC(C)c1ccc(NC(c2nnc(-c3ccccc3)o2)c2ccc(F)cc2Cl)cc1 (centres undefined),?,-28%
Cc1ccc(OCC(=O)Nc2c(C(=O)c3ccc(Cl)cc3)oc3ccccc23)cc1C,-4%,0%
Cc1ccc(NC(=O)c2cnn3c2NC(c2ccccc2)=CC3c2ccccc2)cc1 (centres undefined),?,?
CC1CCCN(S(=O)(=O)c2cc3c4c(c2)CC(=O)N4CCC3)C1 (centres undefined),?,?
CCOC(=O)c1[nH]c(C)c(C(=O)NC(CC)Cc2ccccc2)c1C (centres undefined),-9%,-24%
O=C(NCc1ccccc1)c1c2c(nc3ccccc13)C(=O)N(C1CCCCC1)C2,-24%,-13%
Cc1ccc(CNCc2c(C(=O)O)n(Cc3ccccc3C)c3cc(C)ccc23)cc1,?,-3%
COc1ccc(-c2nnc(SCC(=O)Nc3ccc(C)c(Cl)c3)nc2-c2ccc(OC)c(OC)c2)cc1OC,-16%,-23%
Cc1cccc(N2CCN(C(=O)c3cn(C)c4ccc(S(=O)(=O)N(C)C)cc4c3=O)CC2C)c1 (centres undefined),3%,-1%
Cc1ccc(-n2ncc3c(NCCCN4CCOCC4)ncnc32)cc1C,?,?
Cc1cccc(N2CCN(c3nc4ccc(C)cc4n4cnnc34)CC2C)c1 (centres undefined),?,-19%
Cc1nnc(N2C(=O)c3oc4ccccc4c(=O)c3C2c2ccc(F)cc2)s1 (centres undefined),23%,1%

# Shown with values under each structure: part of the list above
# Each structure is followed by: PMP22 txn	HTT prom inh
- Cc1ccc(C(=O)NCc2ccc3c(c2)CCN3C(=O)c2ccc(C)cc2)cc1
    -58%	?
- COc1ccc(NC(=O)c2ccc(-c3cccc(Cl)c3C)o2)cc1
    -14%	0%
- COc1ccc(NC(=O)CN2C(=O)CSc3ccc(S(=O)(=O)N4CCCC4)cc32)cc1OC
    22%	-22%
- CCN(C(=O)c1cccn(Cc2cccc(Cl)c2)c1=O)c1ccccc1
    5%	-14%
- O=C(Cn1nc(-c2ccccc2)nc(Cc2ccccc2)c1=O)Nc1ccc(Cl)cc1
    -18%	-15%
- COCCNC(=O)CN1C(=O)c2cccnc2Oc2ccc(Cl)cc21
    13%	5%
- COc1ccccc1NC(=O)CN1C(=O)C2(SCC(=O)N2c2ccc(F)c(F)c2)c2ccccc21 (centres undefined)
    6%	?
- COc1ccc(NC(=O)Cn2c(=O)n(Cc3ccccc3)c(=O)c3oc4ccccc4c32)cc1Cl
    ?	6%
- CCc1cccc(NC(=O)CN(C)S(=O)(=O)c2cccc3cccnc23)c1
    -7%	-21%
- CCCN(C(=O)c1c(C)oc2ncnc(N3CCOCC3)c12)c1ccc(Cl)c(Cl)c1
    0%	-10%
- Cc1ccc(C2CC(=O)N(Cc3ccc(F)cc3)c3c2c(C)nn3-c2nc(C)cc(C)n2)cc1 (centres undefined)
    1%	-27%
- O=c1[nH]c(C2CCCN(S(=O)(=O)c3ccccc3)C2)nc2c1nnn2Cc1ccccc1Br (centres undefined)
    ?	-24%
- CN(C(=O)CSc1nc2ccc(NC(=O)c3cccc(F)c3)cc2s1)c1ccccc1
    ?	?
- COc1ccc(NC(=O)CC2C(=O)N(c3ccc(OC)cc3)C(=O)N2C2CCCCC2)cc1 (centres undefined)
    -2%	26%
- Cc1cccc(C(=O)Nc2c3c(nn2-c2ccc(Cl)cc2)CS(=O)(=O)C3)c1
    -7%	-22%
- COc1ccccc1NS(=O)(=O)c1cn(C)c(C)n1
    6%	-7%
- CCCN1CCN(c2ncc3c(n2)CCN(Cc2ccc(OC)c(OC)c2OC)C3)CC1
    -22%	-16%

# New compounds follow.
SMILES,PMP22 txn,HTT prom inh
Cc1cc2n(n1)CCCN2C(=O)Nc1ccc(C)c(Cl)c1,2%,-21%
CC(=O)c1ccc(NS(=O)(=O)c2cnc(N)nc2)cc1,?,3%
CCCOc1ccc(OC(=O)c2c(-c3ccccc3Cl)noc2C)cc1,12%,-10%
Cc1ccc(OCC(=O)Nc2nc(-c3ccc(Br)cc3)ns2)cc1,-43%,-6%
Cc1ccc(NC(=O)c2c(C)oc3ncnc(N4CCCCC4)c23)c(C)c1,-15%,-26%
CC(C)Cc1ccc(S(=O)(=O)Nc2cc3c(cc2N2CCOCC2)n(C)c(=O)c(=O)n3C)cc1,?,-2%
Cc1cccc(NC(=O)c2ccc(-c3ccccc3)s2)c1,-1%,45%[activator]
COc1ccc(N(Cc2ccccc2)C(=O)c2nc(S(C)(=O)=O)ncc2Cl)cc1,1.8µM*,?
CCOCCCNC(=O)C1CCCN(Cc2nc(-c3ccc(CC)cc3)oc2C)C1 (centres undefined),?,?
COC(=O)c1cc2oc(C)cc2n1CC(=O)Nc1ccc(OC)c(OC)c1,-48%,-11%
CCCN(CCC)S(=O)(=O)c1ccc(N2CCCCS2(=O)=O)cc1,-7%,-23%
CCN(CC)C(=O)Cn1cc(SCC(=O)Nc2ccccc2C)c2ccccc21,-16%,-12%
O=C(CCCCCn1c(=O)c2sccc2n(CC(=O)Nc2ccccc2F)c1=O)NCc1ccc2c(c1)OCO2,?,-9%
CCc1ccc(-n2c(=O)c3c4c(sc3n(CC(=O)NC(C)CC)c2=O)CCCC4)cc1 (centres undefined),30%,-9%
COc1ccc(OC)c(Nc2ncnc3c2nc2n3CCCC2)c1,-8%,8%
Cc1cccc(OCCSc2nc3ccccc3n2CC(=O)N2CCOCC2)c1,35%,-17%
O=C(Nc1ccccc1C(F)(F)F)N1CCOc2ccc(Cl)cc21,?,-9%
Cc1ccc(C2c3c(oc4ccccc4c3=O)C(=O)N2c2nnc(C)s2)cc1 (centres undefined),-10%,-11%
CCN(C(=O)Cc1c(C(=O)O)c(C)cn1C)c1cccc(Cl)c1,6%,-11%
O=C1NC(=O)C(c2ccccc2[N+](=O)[O-])=C1Nc1ccc(O)c(Cl)c1,nt,-18%
Cc1ccc(-c2cc(NC(=O)c3ccccc3Cl)on2)cc1,16%,30%[activator]
Cc1cccc2nc(-c3ccccn3)c(Nc3ccc(F)cc3)n12,13µM*,?
COc1cc(Cl)c(C)cc1NC(=O)c1cnc(N2CCCCC2)c2ccccc12,-34%,-13%
CCc1ccc(C(=O)NC2=NC(c3ccccc3F)CC(=O)N2)cc1 (centres undefined),-1%,-11%
Cc1cc(C)c(NC(=O)c2nc3ccccc3nc2N2CCCCC2)c(C)c1,?,-13%
CCOc1ccc(NC(=O)C(NC(=O)C2CCC(C)CC2)C(C)C)cc1 (centres undefined),-9%,0%
COc1ccc(NC(=O)Cn2ccn(Cc3ccccc3)c(=O)c2=O)cc1Cl,-1%,-37%
Cc1cccc(NC(=O)c2ccc(-n3cnc4cccnc43)cc2)c1C,-16%,11%
COc1ccc(-c2ccc(=O)n(CC(=O)Nc3cc(OC)ccc3OC)n2)cc1,-17%,-24%
CCCN(CCC)C(=O)Cn1c(=O)n(-c2ccc(CC)cc2)c(=O)c2c3c(sc21)CCC3,-1%,-15%
COc1ccc(NC(=O)C(NC(=O)/C=C\c2ccc3c(c2)OCO3)c2ccccc2)cc1 (centres undefined),-24%,-11%
COc1ccc(-c2noc(CSCC(=O)Nc3cc(OC)c(OC)c(OC)c3)n2)cc1OC,-18%,2%
Cc1ccc(NC(=O)C2CCCN(S(=O)(=O)c3ccc4[nH]c(=O)ccc4c3)C2)cc1Cl (centres undefined),-22%,-13%
CN1CCN(c2cc(C(=O)Nc3ccc4c(c3)-c3c(c(C(N)=O)nn3-c3ccc(F)cc3)CC4)c(Cl)cn2)CC1,nt,?
Cc1ccc(C(=O)Nc2ccc3oc(-c4ccccc4C)nc3c2)cc1,14%,4%
Cc1c(NC(=O)c2nc3ccccc3nc2N2CCCCC2)cccc1[N+](=O)[O-],-21%,-15%
CCCn1c2ccccc2c2cnn(CC(=O)NCC3CCN(Cc4ccccc4C)CC3)c(=O)c21,?,-13%
COc1ccc(-c2noc(-c3ccc(NCCc4ccccc4)c([N+](=O)[O-])c3)n2)cc1,-22%,-7%
CCCCOc1ccc(CNC(=O)CN2C(=O)CCn3nc(-c4cn(C)c5ccccc45)cc32)cc1,-19%,?
N#Cc1ccccc1NC(=O)C(=O)NCCc1csc2nc(-c3cccc(F)c3)nn12,-2%,-7%
Cc1ccc2oc3c(c(=O)c2c1)C(c1ccccc1F)N(CCCN1CCOCC1)C3=O (centres undefined),-57%,13%
O=C(NCc1ccccc1)c1cc(Sc2cccc(Cl)c2)nc2ccccc12,-31%,-17%
CCCCc1ccc(C(=O)Nc2ccc3nc(N4CCN(CC)CC4)cc(C)c3c2)cc1,?,-2%
COc1ccc(OC)c(/C=C(\C#N)c2nc(-c3ccc(F)cc3)cs2)c1,-13%,0%
COc1ccccc1NC(=O)c1cc2c(=O)oc3ccc(C)cc3c2s1,6%,-5%
CC(C)c1ccc(S(=O)(=O)c2nnn3c2nc(N2CCCC2)c2sccc23)cc1,1%,-7%
COc1ccc2c(c1)Cc1sc(NC(=O)c3ccccc3Br)nc1-2,?,-7%
COc1ccccc1NC(=O)c1cc(S(=O)(=O)N2CCN(c3ccccc3Cl)CC2)ccc1F,-28%,-7%
COc1ccc(NC(=O)c2c(C)oc3ccc(O)c(CN4CCCCCC4)c23)cc1Cl,?,-22%
CCn1c(SCC(=O)Nc2ccc(C)c(C)c2)nnc1-c1nonc1NC(C)=O,8%,-20%
COc1ccccc1C(=O)Nc1ccc2oc(-c3cccc(Cl)c3Cl)nc2c1,-8%,6%
O=C(NCc1ccc(Cl)cc1)C1CCC(CNS(=O)(=O)c2ccccc2)CC1 (centres undefined),-38%,-26%
CCC(=O)N1c2ccccc2CC1C(=O)NCCCN1CCN(c2ccc(OC)cc2)CC1 (centres undefined),-33%,6%
COc1ccccc1N1CCN(S(=O)(=O)CCNC(=O)COc2ccccc2F)CC1,-19%,-13%
CCN(CC)CCNC(=O)c1ccc2nc(-c3ccccc3)c(-c3ccc(CN4CCC(n5c(=O)[nH]c6ccccc65)CC4)cc3)nc2c1,nt,?
CN(Cc1ccccc1)C(=O)c1cccc(NC(=O)c2nsc3ccccc23)c1,?,42%[activator]
Cc1ccc(NS(=O)(=O)c2ccc3[nH]c(=O)oc3c2)c(C)c1,-6%,-6%

# Screens from PubChem.
